Source: PubChem BioAssay
Tgondii IFNg = T. gondii growth inhibition under IFN-gamma; Toxoplasma gondii growth in IFN-gamma-treated host cells; stronger effect = lower value; reference of the scale not given here; activity change, negative = inhibition, %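 (about 20 µM by stock and volumes)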; 69,000 tested, 3.8% active; AID 1259416;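 active = below -70%; inconclusive = fit judged invalid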;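 note: host cells are HeLa cells infected with Toxoplasma gondii; parasite growth read as luciferase light; one replicate is shown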
* marks the source's active call; other numbers are inactive results; i = inactive; ? = inconclusive. An excerpt; the hit share may differ from the screen's.

SMILES	Tgondii IFNg
CC(C)c1ccc2[nH]c(=O)c(CNc3ccc4[nH]ncc4c3)cc2c1	-82*
O=C(O)C1/C(=C\CO)OC2CC(=O)N21 (stereo unspecified)	21
Cc1ccc(NC(=O)CC(=O)NCCc2nc3c(C)c(C)ccc3[nH]2)cc1	-68
CC12C=CCC1C1CCC3CC(=O)CCC3(C)C1CC2 (stereo unspecified)	-3
OCC1(CC2CCCCO2)CCN(c2cnc3ccccc3n2)CC1 (stereo unspecified)	48
N#Cc1ccc(-c2csc(COc3ccc4nonc4c3)n2)cc1	11
Cc1cccc(NC(=O)c2c(O)c3ccccc3[nH]c2=O)n1	456
N#C[C@H]1[C@H](c2ccccc2-c2cccc(F)c2)[C@@H](CO)N1C(=O)CN1CCOCC1	-8
CC(=O)Nc1cccc(-c2ccnc(N)c2)c1	-46
CC1CCCN(S(=O)(=O)CCN)C1 (stereo unspecified)	10
Cc1nc(-c2ccc(F)cc2)sc1-c1ccc(SCc2ccc(F)cc2)nn1	1
Cc1cccc(NC(=O)c2nnn(Cc3nc(-c4cccc(Cl)c4)oc3C)c2C)c1C	21
O=C(NC(=S)N1CCc2ccccc21)c1cncc(C#Cc2ccccc2)c1	4
O=C1OC2(O)c3ccccc3C(=O)N2c2ccccc21 (stereo unspecified)	19
Cc1ccoc1C(=O)NCc1cnn2ccccc12	22
CCOc1ccc(CNC(=O)C2=C(C)C(=O)OC23CCN(S(C)(=O)=O)CC3)cc1	1
Cn1ccc(C(=O)N2CCC3(CCOCC3NS(C)(=O)=O)CC2)n1 (stereo unspecified)	0
CCOC(=O)c1cc2c(c(-c3cccc(-c4cccc(F)c4)c3)n1)[C@H](CCO)N(S(=O)C(C)(C)C)C2 (stereo partly specified)	-52
COc1cccc2cc(C(=O)Nc3cc4c(cc3NC(C)=O)OCCO4)c(=O)oc12	14
C[C@@H]1CN([C@H](C)CO)C(=O)c2c(c3ccccc3n2C)-c2ccccc2CO[C@H]1CN(C)C(=O)Nc1ccccc1C(F)(F)F	-59
CC(C)(C)N=C1Nc2ncccc2NC12CCN(C(=O)c1ccco1)CC2	-40
CCCNC(=O)N1[C@H](C#N)[C@@H](c2ccccc2-c2ccc(OC)cc2)[C@@H]1CO	13
Cc1ccc(-c2ccc(C(=O)N3CCCC3)cn2)c(-n2cccn2)c1	-55
C[C@@H]1CN([C@@H](C)CO)C(=O)c2cc(C#Cc3ccccc3)cnc2O[C@@H]1CN(C)C(=O)c1ccccc1	-64
Cc1cc(NC(=O)C2CCCC2)n(-c2ncnc3c2cnn3-c2ccc(Cl)cc2)n1	21
COc1cc(Nc2nc(SCc3ccc(Cl)cc3)nc3ccccc23)cc(OC)c1	11
COCC(=O)NC(CC(C)C)C1=CCCN(C)C1 (stereo unspecified)	1
O=C(CCC(=O)NC1CCCCCCC1)NCC(O)c1ccccc1 (stereo unspecified)	38
CC(=O)Nc1ccc(Cl)c(C(=O)N2CCC(Oc3cccc(C)c3)CC2)c1	-42
Cc1cc(C(=O)NOCCO)c(Nc2ccc(I)cc2F)n(C)c1=O	6

A draw from above in order of count of non-hydrogen atoms, rising:
SMILES	Tgondii IFNg
COCC(=O)NC(CC(C)C)C1=CCCN(C)C1 (stereo unspecified)	1
Cc1ccoc1C(=O)NCc1cnn2ccccc12	22
O=C1OC2(O)c3ccccc3C(=O)N2c2ccccc21 (stereo unspecified)	19
Cn1ccc(C(=O)N2CCC3(CCOCC3NS(C)(=O)=O)CC2)n1 (stereo unspecified)	0
Cc1ccc(-c2ccc(C(=O)N3CCCC3)cn2)c(-n2cccn2)c1	-55
CC(C)(C)N=C1Nc2ncccc2NC12CCN(C(=O)c1ccco1)CC2	-40
O=C(NC(=S)N1CCc2ccccc21)c1cncc(C#Cc2ccccc2)c1	4
CCOc1ccc(CNC(=O)C2=C(C)C(=O)OC23CCN(S(C)(=O)=O)CC3)cc1	1
Cc1cc(NC(=O)C2CCCC2)n(-c2ncnc3c2cnn3-c2ccc(Cl)cc2)n1	21
Cc1cccc(NC(=O)c2nnn(Cc3nc(-c4cccc(Cl)c4)oc3C)c2C)c1C	21
CCOC(=O)c1cc2c(c(-c3cccc(-c4cccc(F)c4)c3)n1)[C@H](CCO)N(S(=O)C(C)(C)C)C2 (stereo partly specified)	-52
C[C@@H]1CN([C@@H](C)CO)C(=O)c2cc(C#Cc3ccccc3)cnc2O[C@@H]1CN(C)C(=O)c1ccccc1	-64
C[C@@H]1CN([C@H](C)CO)C(=O)c2c(c3ccccc3n2C)-c2ccccc2CO[C@H]1CN(C)C(=O)Nc1ccccc1C(F)(F)F	-59

Additional structures:
SMILES	Tgondii IFNg
C/C=C/c1ccc([C@@H]2[C@H](CO)N3CCCCN(S(=O)(=O)c4ccc(OC)cc4)C[C@@H]23)cc1	0
O=C(c1ncoc1C1CC1)N1C[C@H]2OC(=O)N(CCCc3ccc(F)cc3)[C@H]2C1	-6
COCCN1C(=O)CCc2cc(NS(=O)(=O)c3cc(OC)ccc3OC)ccc21	0
CCn1cc2c(n1)CN(Cc1ccco1)CC2COCC1CC1 (stereo unspecified)	-56
CCn1c(N2CCC(C(=O)NCC(N)=O)CC2)nc2ccccc21	-21
NCCc1nc(NCCNC(=O)c2ccc(F)cc2)c2ccccc2n1	-3
CN1CCN(C(=O)c2ccccc2-c2ncc[nH]2)CC1C(=O)O (stereo unspecified)	2
CNC(=O)CN1CCCn2cnc(COCc3ccco3)c2C1	1
O=C(C[C@H]1C=C[C@H](NC(=O)Cc2cccnc2)[C@H](CO)O1)NCc1ccc2c(c1)OCO2	42
O=C(c1c[nH]c(=O)cn1)N1CCCCC1CCn1ccnc1 (stereo unspecified)	4

Reformatted: entries from further up.
smiles,Tgondii IFNg
CCn1cc2c(n1)CN(Cc1ccco1)CC2COCC1CC1 (stereo unspecified),-56
CCn1c(N2CCC(C(=O)NCC(N)=O)CC2)nc2ccccc21,-21
NCCc1nc(NCCNC(=O)c2ccc(F)cc2)c2ccccc2n1,-3
CN1CCN(C(=O)c2ccccc2-c2ncc[nH]2)CC1C(=O)O (stereo unspecified),2

Additional results
SMILES	Tgondii IFNg
O=C(Nc1ccc(C(F)(F)F)cc1)N[C@H]1C=C[C@@H](CC(=O)N2CCCCC2)O[C@@H]1CO	-48
COCCCN=C(Nc1ccc(C(=O)O)cc1)N1CCN(c2ncnc3ccccc23)CC1	43
O=C(C1CCCCC1)N1[C@H](CO)[C@@H]2c3ccccc3NC[C@@H]21	-16
C=CCOCC1CN(C)Cc2nnn(C)c21 (stereo unspecified)	-4
Cc1ncc(CO)c(CN(C)Cc2nc(C3CC3)no2)c1O	7
Cc1ccsc1[C@@H]1CCN(C(=O)Cn2[nH]c(=O)ccc2=O)C[C@H]1O	94
O=C1COC2(CCN(Cc3ccco3)CC2)CN1CC1CC1	8
O=C(CN1C(=O)CCc2cc(S(=O)(=O)N3CCCC3)ccc21)Nc1cccc(Br)c1	-108*
Cc1occc1C(=O)N1CCn2c(Cn3cncn3)cnc2C1	20
COc1ccc(-c2cc3cc(OC)c(OC)cc3c(C)n2)cc1	34
Fc1cccc(CN2CCN(Cc3ncc[nH]3)CC2)c1	5
O=C(NCC1CCN(c2cc(-c3ccncc3)[nH]n2)CC1)c1cc2ccccc2[nH]1	-79*
Cc1ccc(NC(=O)c2nnn(Cc3nc(-c4ccccc4C)oc3C)c2C)cc1Cl	127
Cn1nc(C(F)(F)F)c(-c2ccc(F)cc2)c1NC(=O)Nc1ccccc1	-50
Cc1ccc(N2CCCC2=O)cc1S(=O)(=O)N1CCCCCC1c1cnn(C)c1 (stereo unspecified)	2
Cc1ccc(SC(=O)c2cc(C)n(-c3c(Cl)cc(Cl)cc3Cl)n2)cc1	-100*
C=CCN(Cc1ccccc1OC)C(=O)c1c(-n2cnnn2)sc(C)c1C	49
COc1cc(CN2CCC(Oc3cnccn3)CC2)ccc1N1CCCC1	14
CNC[C@@H]1Oc2ccc(NS(=O)(=O)c3ccc(OC)cc3)cc2C(=O)N([C@H](C)CO)C[C@@H]1C	-59
Cc1cccc2nc(C(=O)N3CCC(n4cc(C(C)(C)O)nn4)CC3)cn12	-2
Cc1ccc(-c2nccc(C(F)(F)F)n2)c2cccnc12	-57
CN(C)C(=O)C1(Cc2ccc(-c3ccccc3)cc2)CCN(CC2=CCCOC2)C1 (stereo unspecified)	-27
CO[C@@H](CN(C)CC1CCOCC1)[C@H](C)CN(C(=O)Nc1ccc(F)cc1)[C@@H](C)CO	104
COc1ccc(C(=O)Nc2nc(C)c(C(C)=O)s2)cc1	i
COc1ccc(-c2cccc(-c3noc(C)n3)c2)c(OC)c1OC	-75*
OC1(c2ccc(-c3cccc4ccnn34)cc2)CCNCC1	-39
CCNC(=O)C1(Cc2ccc(-c3cccs3)cc2)CCCN(C(=O)c2ccncc2)C1 (stereo unspecified)	-12
CCC(C(=O)NCCc1cc(=O)[nH]c(C)n1)n1cc(C(C)=O)c2ccccc21 (stereo unspecified)	-49
COCC1CCC2(CCN(C(=O)COc3ccccc3)CC2)N1C (stereo unspecified)	0
CC(C)N(C(=O)Cn1c(C(F)F)cc2cccnc21)C(C)C	248
COc1ccc2c3c(n(C)c2c1)[C@@H](CO)N(C(C)=O)CC31CN(S(=O)(=O)c2ccccc2)C1	106
COc1ccc(CNC(=O)c2nc(Nc3ccc(F)cc3)c3ccccc3n2)c(OC)c1	40
O=C(CSc1nnc(CSc2nc3ccccc3s2)o1)NC1CCCCC1	-68
CCOc1ncccc1C(=O)CC(=O)OC	-27
COC[C@H]1CCC[C@]12CN(S(=O)(=O)c1cccs1)CCO2	7
CO[C@@H]1CN(C)C(=O)c2cc(NC(=O)C3CCCCC3)ccc2OC[C@H](C)N(C(=O)c2ccccc2)C[C@H]1C	80
O=C(C1CCOCC1)N1C[C@H]2[C@@H](c3ccccc31)[C@H](CO)N2C(=O)Cc1ccccn1	-5
OCCOCc1nnn2c1CN(c1ncccn1)CCC2	71
O=C1NC(c2ccc(Cl)cc2)Nc2ccccc21 (stereo unspecified)	11
Cn1c(=O)[nH]c(=O)c2c1nc(Br)n2CCCO	2
O=C(O)C[C@H]1C=C[C@H](NC(=O)Nc2cc(F)ccc2F)[C@@H](CO)O1	-34
Cc1ccc(C(=O)N(C)Cc2snnc2C)cc1NC(=O)C1CC1	77
CCCS(=O)(=O)N1CCC2(CC1)CC(OCc1cccnc1)CO2 (stereo unspecified)	9
Cc1ccc(-c2nnc(-c3nc(NCCCN4CCCC4=O)c4ccccc4n3)o2)cc1	263
O=C1N(CC2CC2)CCC12CCN(Cc1nccs1)CC2	11
C[C@@H](NC(=O)N1C[C@H](N(C)C)C[C@H]1CO)c1ccc(Cl)cc1	8
O=c1[nH]nc(C2CCCN(C/C=C/c3ccco3)C2)n1-c1ccccc1 (stereo unspecified)	-4
COc1cc(C(=O)NCCc2csc(-c3ccc(Cl)cc3)n2)cc(OC)c1OC	14
Cc1cc2c(cc1-c1c(-c3ccccc3)ncn1Cc1cccnc1)OCO2	-29
Cc1cc(C)cc(CN2CCC3(CC(C(=O)NCc4ccco4)=NO3)C2)c1 (stereo unspecified)	-12

(cont.)
SMILES	Tgondii IFNg
CN(Cc1ccc2cccc(Cl)c2n1)Cc1ncc[nH]1	4
CC1(C)CC(=NOC(=O)N2c3ccccc3C=Cc3ccccc32)CC(C)(C)N1	68
O=C1NCCNC12CCN(S(=O)(=O)c1cc(F)cc(F)c1)CC2	-2
O=C(c1cccnc1)N1CCOCC2(CCC(Cn3cncn3)O2)C1 (stereo unspecified)	6
CCN(CC)C(=S)SCC(=O)c1ccccc1	318
CCn1cc(-c2cc(C(=O)Nc3ccc4nc(C)sc4c3)on2)c(C)n1	19
NC(=O)c1cnc2n1CCN(C(=O)CC(c1ccccc1)c1ccco1)C2 (stereo unspecified)	0
CNC(=O)Cn1cc(/C=C/c2ccccc2)cn1	6
CCc1cc2ccc(C)cc2nc1SCC(=O)NCCc1ccccc1	-40
Cc1oc(-c2cccc(Cl)c2)nc1CN1CCN(C(=O)NC2CCCCC2)CC1	-10
Cc1ccc2[nH]c(=O)c(-c3nc(-c4ccc(Br)cc4)no3)c(O)c2c1	56
O=C(CSc1ccccn1)N1CCc2c(c(C(=O)N3CCOCC3)nn2CCc2ccccc2)C1	-11
Clc1cc(Cl)cc(OCc2ncc(-c3ccc4c(c3)OCCCO4)s2)c1	-32
c1cc(-c2nc(-c3ccc4c(c3)OCCCO4)cs2)on1	216
COc1cc(OC)c(Nc2nc(-c3nnc(-c4ccc(F)cc4)o3)nc3ccccc23)cc1Cl	86
COc1ccc(-c2nc(C)c(CCNC(=O)c3cccc([N+](=O)[O-])c3)s2)cc1OC	i
C=CCOC1C2CCC1N(C(=O)c1cc(C)nn1CC)CCO2 (stereo unspecified)	107
COCCNC(=O)[C@H]1CC[C@H]2[C@@H](CCN2c2ncc(F)cn2)O1	2
O=C(Oc1ccc(Cl)cc1)c1cscc1Sc1ccc(Cl)cc1	-101*
C[C@@H]1C(=O)O[C@H]2CC34[C@H]5C[C@@H](C(C)(C)C)[C@]36[C@@H](OC(=O)[C@@H]6O)O[C@@]4(C(=O)O5)[C@]21O (stereo partly specified)	1
COc1cccc(CN(C)Cc2csc(C(C)C)n2)c1O	9
CC(C)COc1ccc(-c2noc(-c3c(O)c4ccccc4n(C)c3=O)n2)cc1	40
Cc1cccc2c(CC(C)NC(=O)CC(C)n3nnc4ccccc43)c[nH]c12 (stereo unspecified)	45
Cc1cc(C)cc(C(=O)N2CCN(S(=O)(=O)c3cc4c5c(c3)CCC(=O)N5CCC4)CC2)c1	-21
Cc1cccc(-c2nc(CSc3nc4c(=O)[nH]cnc4n3-c3ccccc3)c(C)o2)c1	-110*
Cn1cc(C(=O)NCc2cc(=O)n3c(n2)CNCCC3)cn1	5
C[C@@H]1CCCCO[C@H](CN(C)CC2CCCCC2)[C@H](C)CN([C@@H](C)CO)C(=O)c2cc(NS(C)(=O)=O)ccc2O1	?
CN(CC(=O)Nc1ccc2nc(Cc3ccccc3)[nH]c2c1)C1CCS(=O)(=O)C1 (stereo unspecified)	-10
COc1ccc(-c2nc(Cn3ccn4nc(-c5ccc6c(c5)OCO6)cc4c3=O)c(C)o2)cc1	-19
CCCN1CC(NC(=O)c2cc3ccccc3s2)CC1=O (stereo unspecified)	8
COc1ccc2c(c1)NC1(CCN(C(=O)NCc3ccc(F)cc3)CC1)c1cccn1-2	319
CCCC(=O)N1CCc2c(CNS(C)(=O)=O)cncc2C1	17
Fc1ccccc1CN1CCC2(CC1)CC(OCc1ccncc1)CO2 (stereo unspecified)	0
